Screening results (PubChem)
BJeLR viability: MLPCN primary cell-based screen for lethality selective to Ras in HRASV12 cells | inhibition, % (no concentration beside the values) | 300,000 compounds, 0.17% hits | BJeLR (HRASV12) viability, CellTiter-Glo ATP luminescence, 48 h; reference of the scale not given here | AID 1554, 2009;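 active = replicate mean above 50%; inconclusive = above 50% but judged a plate artefact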;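 note: 50 nL library stock added to about 25 µL; numbers are from one replicate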
Mtb hypoxia inh: PubChem AID 1159583; M. tuberculosis hypoxia-regulated fluorescent reporter, fluorescence; fluorescence inhibition, % (no concentration beside the values); 300,000 compounds, 0.1% hits;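 active = 35 to 45% if threefold the growth effect, above 45% if 1.5-fold the growth effect; inactive = the rest, general growth blockers included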;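 note: wells of about 50 µL received 100 nL stock; 0% = vehicle wells and 100% = reference inhibitor wells; whole bacteria with a GFP reporter of the hypoxia response; strong numbers were not always called active; many hits fall short of the cut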
RN4220 kill: growth inhibition of S. aureus RN4220, primary screen, OD600 | 16 h | inhibition, % (no concentration beside the values) | 330,000 compounds, 0.33% hits;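 active = z-score of -3 or lower and OD600 up to 0.18 on both plates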;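 note: plate controls were untreated cells for no effect and reference antibiotic for full effect; stock transfer was 100 nL into about 80 µL; one replicate is shown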
PrP UTR inh: inhibition of PrP 5' UTR reporter expression; cell-based PrP 5' UTR mRNA reporter, plate reader; inhibition, % (no concentration beside the values); 340,000 compounds, 0.35% hits; AID 488862, 2010;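 active = every replicate at 50% or more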;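 note: 0 = median of the neutral control wells; tested in H4 reporter cells; numbers are from one replicate; inactives centre near -14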
ugtP null kill: growth inhibition of ugtP-null S. aureus, primary screen, RN4220 ugtP deletion, OD600; 16 h; some inactives read as strong as hits; growth inhibition, % (concentration not given with the values); 330,000 compounds, 0.54% hits; AID 1259309, 2017;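 active = z-score under -3 and OD600 up to 0.15 on both plates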;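 note: plate controls were untreated wells for no effect and antibiotic for full effect; wells of about 80 µL received 100 nL stock; the first replicate is given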
Autofluor counter: flagged as autofluorescent in microsphere protease counterscreen; 360,000 compounds, 3.1% hits; fluorescence intensity (no concentration beside the values); compound autofluorescence counterscreen, microsphere flow cytometry; stronger effect = higher value;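 active = at least 3 SD above the mean of all compounds, about 16000 in these data; inconclusive = too few beads counted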;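 note: 100 nL of 1 mM stock went into each well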
Mtb hypoxia inh growth: recorded beside Mtb hypoxia inh, whose call it bears; growth inhibition, %; measured here: M. tuberculosis growth (absorbance);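 0% = vehicle and 100% = reference antibiotic; read after six days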
Starred values were filed as active, the others as inactive; ? = inconclusive; . = no result given.

SMILES	BJeLR viability	Mtb hypoxia inh	Mtb hypoxia inh growth	RN4220 kill	PrP UTR inh	ugtP null kill	Autofluor counter
Cc1cc2oc(C(=O)NC3CCS(=O)(=O)C3)c(C)c2cc1C (stereo unspecified)	-4	.	.	-1.0	-7	-10	4522
CCN(CC(=O)NC(c1ccccc1)c1ccccc1)Cc1nc2ccccc2c(=O)[nH]1	-10	-12	-2	2.6	-31	-3	3901
O=C(c1ccccc1)N1CCCC(C(=O)N2CCc3ccccc3C2)C1 (stereo unspecified)	-7	9	11	3.3	-20	-5	5418
CN(C)C(=O)CNc1n[nH]c(=S)[nH]c1=O	2	-3	6	2.4	-7	1	3497
Cc1ccc(Cl)cc1S(=O)(=O)N1CCC(C(=O)NC2CCN(Cc3ccccc3)CC2)CC1	-5	2	8	3.5	-12	-2	4036
Cc1ccoc1C(=O)Nc1cccc(Oc2ccccc2)c1	-4	.	.	4.5	-97	50	2320
Cc1nn(Cc2ccccc2Cl)c(C)c1NC(=O)C1C2CCC(O2)C1C(=O)O (stereo unspecified)	6	-1	1	-2.5	-14	10	2841
c1ccc(-c2noc(-c3ccno3)n2)nc1	-4	4	9	5.1	-3	8	6274
O=C(c1ccccc1)c1nn(-c2ccc(Cl)cc2)c(=O)cc1C(F)(F)F	21	.	.	94*	-29	81	2901
COC(=O)[C@H]1Cc2cnoc2C[C@]1(C)C(=O)O	-3	3	6	3.9	-21	7	10856
Cc1ccc(NC(=O)CN2C(=O)NC3(CCc4ccccc43)C2=O)cc1Cl (stereo unspecified)	0	.	.	-0.5	-17	-16	4351
CC(C)C[C@H](NC(=O)OC(C)(C)C)C(=O)N[C@@H](CO)[C@H](O)[C@@H]1C[C@@H]1C(=O)NC1CCCCC1	-6	.	.	.	10	.	3635
O=C(CN1CCN(C(C(=O)Nc2ccc(F)cc2)c2ccccc2)CC1)NC1CC1 (stereo unspecified)	.	-1	10	2.8	-54	7	3219
N=C1C(c2nc3ccccc3[nH]2)=C(O)CN1NC(=O)COc1cccc(F)c1	0	7	4	4.0	.	-1	.
Oc1c(Cl)cc(Cl)c(Cl)c1CN1CCOCC1	.	21	6	0.9	-35	-1	3016
Cc1cc(C)c(Cn2c3ccccc3c3cnn(CC(=O)NCCN4CCOCC4)c(=O)c32)c(C)c1	-12	-2	8	5.4	-28	8	6104
C=CCn1c(-c2ccccc2OCC)n[nH]c1=S	2	10	14	0.5	-20	1	4146
CCCCC(=O)Nc1ccc(C)c(S(=O)(=O)N2CCCCCC2)c1	.	-6	-6	3.8	0	4	2782
O=C(NCc1ccc(F)cc1)c1cc(-c2ccco2)on1	-17	-1	10	0.1	-29	-1	23399*
CC(C(=O)NCc1ccccc1)N1CCN(c2ccc(F)cc2)CC1 (stereo unspecified)	0	6	-4	-3.2	-12	1	3955
O=C(c1cnccn1)N(Cc1ccco1)C1(C(=O)NC2CCCCC2)CCCCC1	5	1	1	5.8	-6	-1	7033
NC(=O)c1nc[nH]c1C(=O)Nc1cccc(C(F)(F)F)c1	.	4	6	5.2	-11	-1	3454
CCC(C)N(C(=O)COC(=O)CN=C1NS(=O)(=O)c2ccccc21)C1CCS(=O)(=O)C1 (stereo unspecified)	.	5	7	1.8	-35	6	5201
COc1cc(C=NNC(=O)c2cccc([N+](=O)[O-])c2)ccc1OCc1ccccc1	.	1	4	1.8	.	3	.
Cc1ccc(-c2noc(Cn3nc(C(=O)O)c4ccccc4c3=O)n2)cc1	-6	2	0	5.2	-23	10	5699

The list continues:
SMILES	BJeLR viability	Mtb hypoxia inh	Mtb hypoxia inh growth	RN4220 kill	PrP UTR inh	ugtP null kill	Autofluor counter
CC(=O)OCC(OC(C)=O)C(OC(C)=O)C(OC(C)=O)C(=O)Nc1ccc(C)cc1C (stereo unspecified)	10	-9	14	-4.4	-8	-7	9321
O=C(NCc1nc2ccccc2[nH]1)c1cccs1	2	6	5	4.1	-35	11	5747
Cn1cc(S(=O)(=O)N2CCC(C(N)=O)CC2)c(=O)n(C)c1=O	-13	4	-2	5.9	-23	2	4857
Cc1nnc2n1NC(c1ccc(Cl)cc1)C(C(=O)N1CCC(C)CC1)S2 (stereo unspecified)	-10	7	6	-18	-5	-5	2987
COC(=O)/C=C1\N/C(=N\c2nc(C)cc(C)n2)N(c2ccc(Cl)cc2)C1=O	7	3	-7	-0.1	.	4	.
CCOCCCNC(=O)/C(C#N)=C/c1ccccc1F	29	0	9	0.4	-4	2	4886
COc1cccc(CN(C)C(=O)c2ccc(N3CCCC3)c([N+](=O)[O-])c2)c1	2	15	6	0.4	-27	14	5297
O=C(CN1C(=O)S/C(=C\c2ccc(O)cc2)C1=O)c1ccccc1	-3	.	.	.	-1	.	2501
O=C(N=C1SC2CS(=O)(=O)CC2N1c1cccc(F)c1)C1CC1 (stereo unspecified)	4	15	3	1.7	-15	6	5611
O=C(OCc1ccccc1)c1cnc(Cl)c(Cl)c1	-1	5	4	0.2	-20	10	5523
COC(=O)c1ccc(-c2csc(NC(=O)c3ccc(S(=O)(=O)N4CCc5ccccc5C4)cc3)n2)cc1	1	5	-5	8.6	-14	-17	7531
O=C(/C=C/c1ccccc1)c1ccccc1	-3	.	.	.	-13	.	4674
Cc1ccc(C(=O)N/N=C2\CCCc3ccccc32)c(C)c1	-1	.	.	.	-30	.	4777
O=C(OCC(=O)c1ccc[nH]1)c1ccc([N+](=O)[O-])cc1	.	6	2	4.1	-8	0	6248
Nc1nc(CN2CCN(c3ccccc3)CC2)nc(Nc2ccc(Cl)cc2)n1	-8	-4	5	-1.6	-9	5	2185
O=C(NCCOc1cccnc1)c1ccc(OC2CCN(Cc3ccccn3)CC2)cc1	113*	.	.	.	25	.	6161
CCCOc1ccc(-c2c(C(=O)N/N=C/c3ccc(OC)cc3)nnn2-c2nonc2N)cc1	3	.	.	.	-23	.	2476
COc1cccc(-c2noc(CCCC(=O)NC3CCCC3)n2)c1	3	11	13	2.7	-19	5	4414
CCc1ccc(NC(=S)N2CCNC(=O)C2CC(=O)OC)cc1 (stereo unspecified)	-1	.	.	.	-4	.	4424
CC(=O)c1c(C)[nH]c(C(=O)CN2C(=O)NC(C)(CCC(C)C)C2=O)c1C (stereo unspecified)	8	4	8	1.2	-21	-3	3328
CCCC(=O)NC(c1cccs1)c1cc([N+](=O)[O-])c2cccnc2c1O (stereo unspecified)	11	15	9	80	-7	91*	7550
Cc1cc(O)ccc1Nc1nc2ccccc2nc1Nc1ccc(O)cc1C	-1	-6	-5	-1.1	-32	4	14568
COc1ccc(Cl)cc1NC(=O)CN1C(=O)CC(C)S(=O)(=O)c2ccccc21 (stereo unspecified)	1	0	5	3.6	-13	11	4314
O=C(N=Nc1c(O)[nH]c2ccccc12)c1ccc2c(c1)OCO2	12	-2	8	2.5	-69	-2	2077
CCn1c(Cc2ccccc2)nnc1SCC(=O)OC(C)C	10	-7	1	1.6	-7	3	21705*

(listing goes on)
SMILES	BJeLR viability	Mtb hypoxia inh	Mtb hypoxia inh growth	RN4220 kill	PrP UTR inh	ugtP null kill	Autofluor counter
COc1cc(C(=O)NNC(=O)C2CCC2)cc(OC)c1OC	.	9	3	4.7	.	9	5169
CCOC(=O)c1[nH]c2cc(OC)c(OC)cc2c1N	0	8	12	4.2	-23	-1	?
Clc1ccc(CN2C3=NCCN3c3ccccc32)cc1	11	.	.	-2.7	-18	-3	4229
COCC(O)CNc1ccccc1 (stereo unspecified)	-1	9	3	3.9	-47	3	2464
CCOC(=O)C(CSCc1ccccc1)NC(=O)OC(C)(C)C (stereo unspecified)	-3	.	.	-5.7	6	-3	2801
Cc1ccccc1CS(=O)(=O)Cc1ccc(C(=O)NC2CCCCC2)o1	2	-4	-13	0.5	-17	5	4398
O=S(=O)(N1CCCCC1)n1nnc2ccccc21	15	7	10	8.2	-37	4	7775
COc1ccc(Nc2cc(Sc3ccc(OC)cc3)ncn2)cc1	-10	2	6	2.2	-9	9	3488
Cn1nnnc1SCC(=O)N1CCN(S(=O)(=O)c2ccccc2)CC1	-1	4	4	0.4	71*	4	4777
O=C(NNC(=O)c1ccc(Cl)c(Cl)c1)c1cccnc1	-5	-3	-1	1.2	-19	2	5117
CCCCCC(=O)O/N=C(\C)c1ccn(S(=O)(=O)c2ccccc2)c1	2	.	.	.	-13	.	3529
Cn1nccc1/C=C(/C#N)S(=O)(=O)c1ccccc1	-1	7	3	3.4	-8	-1	?
Cn1c(SCC(=O)Nc2sccc2C#N)nnc1C1CC1	.	6	8	-1.6	-3	-1	3165
CCCN1CCC(=O)N([C@H](CN=[N+]=[N-])Cc2ccccc2)CC1	-19	.	.	.	-21	.	4414
CCc1cc2cccc(C)c2nc1SCC(=O)N1CCN(C(=O)c2ccco2)CC1	-4	.	.	1.3	-5	-9	4692
CCCCOC(=O)Nc1ccc(S(=O)(=O)Nn2cnnc2)cc1	8	10	6	6.0	2	0	29599*
CCN1CC(CN(C)Cc2nc(-c3ccco3)oc2C)CC1=O (stereo unspecified)	4	19	10	5.3	-22	10	4305
O=C1c2ccccc2C(=O)N1CCCCON1C(=O)c2ccccc2C1=O	-9	-8	1	-0.1	-16	9	2165
CCOC(=O)N1CCc2c(sc3nc4n(c(=O)c23)N=C(c2ccc(OC)cc2)CS4)C1	11	.	.	.	-35	.	3744
Cc1nc(NC(=S)NC(=O)c2cccs2)ccc1Br	-3	-15	-16	4.7	-27	-13	1994
CCn1c(=O)n(CC(=O)Nc2ccc(F)cc2)c(=O)c2ccccc21	-2	-2	-3	3.5	-16	6	2019
CCOC(=O)c1ccc(Oc2c(C)oc3cc(OS(C)(=O)=O)ccc3c2=O)cc1	-2	-17	2	3.2	3	-2	2441
COc1cc(OC)c(NC(=O)c2ccc(Br)o2)cc1Cl	-3	15	-1	-8.1	-9	-3	3294
COc1c(OC)c(O)c2c(=O)c(O)c(-c3ccccc3)oc2c1OC	4	.	.	-0.6	-16	5	5086
O=C1c2cccnc2C(=O)N1Cc1ccc(F)cc1	1	4	12	2.0	-7	0	21659*

5 compounds drawn at random from those above:
SMILES	BJeLR viability	Mtb hypoxia inh	Mtb hypoxia inh growth	RN4220 kill	PrP UTR inh	ugtP null kill	Autofluor counter
COc1cc(C(=O)NNC(=O)C2CCC2)cc(OC)c1OC	.	9	3	4.7	.	9	5169
CCOC(=O)N1CCc2c(sc3nc4n(c(=O)c23)N=C(c2ccc(OC)cc2)CS4)C1	11	.	.	.	-35	.	3744
CCN1CC(CN(C)Cc2nc(-c3ccco3)oc2C)CC1=O (stereo unspecified)	4	19	10	5.3	-22	10	4305
Cn1nnnc1SCC(=O)N1CCN(S(=O)(=O)c2ccccc2)CC1	-1	4	4	0.4	71*	4	4777
O=C1c2cccnc2C(=O)N1Cc1ccc(F)cc1	1	4	12	2.0	-7	0	21659*

(continued)
SMILES	BJeLR viability	Mtb hypoxia inh	Mtb hypoxia inh growth	RN4220 kill	PrP UTR inh	ugtP null kill	Autofluor counter
COc1cccc(C(C#N)N2N=C(C)CC2(C)C)c1O (stereo unspecified)	2	2	11	5.3	-17	10	6292
CCCCc1cc(=O)oc2c(C)c(OCC(=O)N3CCC(C(=O)O)(c4ccccc4)CC3)ccc12	4	.	.	4.5	-38	1	5056
CCCN1CCC(Oc2cccc(C(=O)NCCc3ccccc3)c2)CC1	-1	-4	-3	1.2	-47	8	8294
COc1cc(SC)ccc1C(=O)N(Cc1ccccc1)c1ccccn1	-8	12	1	8.3	.	-3	.
COc1ccc(-c2sc3ccc(N4CCOCC4)cc3c2C#CCCO)cc1	.	12	9	-5.8	-12	-25	4276
O=C(N/N=C/c1ccccc1O)NC12CC3CC(CC(C3)C1)C2	-25	.	.	.	-44	.	3168
COC(=O)c1sccc1NC(=O)CC1C(=O)NCCN1C(=O)Nc1ccccc1 (stereo unspecified)	6	-1	-4	0.8	-17	11	4483
Cc1nnc2sc(-c3ccc(-c4ccc(Cl)c(C(F)(F)F)c4)o3)nn12	3	5	-7	11	-28	-7	2465
Nc1nc(SCCO)[nH]c(=O)c1NC(=O)c1ccc(Br)o1	-8	.	.	.	-14	.	5390
O=C(COC(=O)CNC(=O)c1ccc(F)cc1)Nc1cccc(S(=O)(=O)N2CCCC2)c1	1	2	2	5.6	-22	5	4042
CCCCN1CCC2C=CCC(C(=O)Nc3ccc(Cl)cc3Cl)C2C1=O (stereo unspecified)	.	4	-3	5.1	.	8	.
CC(C)(C)c1ccc(S(=O)(=O)N2CCN(CC(O)COCC3CCCO3)CC2)cc1 (stereo unspecified)	.	8	6	3.0	.	1	5878
